# Screens from PubChem BioAssay.
# Sa helicase inh – S. aureus DNA helicase inhibition; AID 485395; 120,000 tested, 0.05% active; purified S. aureus helicase, fluorescence unwinding assay; about half of the hits fall short of the stated cut; inhibition, %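 (tested at about 80 µM)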;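 active means both duplicates at 50% or more, or one of them with a favoured structure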;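 further: 0% = mean of negative control wells and 100% = mean of positive control wells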
# MgrA-DNA mod – S. aureus MgrA-DNA binding modulation. fluorescence polarization. inhibition, %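 (about 10 µg/mL by stock and volumes)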. 84,000 tested, 0.13% active;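 active means above 50% in either of two replicates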;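 further: 0% = protein plus DNA without compound and 100% = DNA alone without protein; higher means less MgrA bound to DNA so lower polarization; one replicate is shown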
# * marks the source's active call; other numbers are inactive results; . = not tested or not shown. Some of the compounds tested; rates above refer to the full screens.
Sa helicase inh	MgrA-DNA mod	Structure
23	.	Clc1ccc2cn[nH]c2c1
-4	1.4	O=C(O)COCC1COc2ccccc2O1 (stereo not drawn)
34	.	COc1ccc2c(c1)cc1n2CCN=C1NN
7	-3.0	COCCn1nnnc1C(CC(C)C)N1CCN(c2cc(Cl)ccc2C)CC1 (stereo not drawn)
15	0.5	CN(C)c1nc(N(C)C)nc(N(C)C#N)n1
9	.	C=CCC1Cc2ccccc2C(C)N1 (stereo not drawn)
11	-2.6	Cc1noc(C)c1C(=O)N1CCN(C(=O)c2sc3cc(Cl)ccc3c2Cl)CC1
6	0.0	O=C1CC(NC2CC2)C(=O)N1c1ccccc1 (stereo not drawn)
9	.	C=CCn1c(C)cc(C(=O)COn2nnc3ccc(Cl)cc32)c1C
-7	-0.5	Cc1ccc(Cl)cc1NC(=O)COC(=O)c1ccc(Br)o1
4	.	CCC(CC)c1nc(C(N)=O)c2[nH]c(=O)n(-c3ccc(OC)c(OC)c3)c2n1
-13	.	Oc1c(C(c2ccc(C(F)(F)F)cc2)N2CCCC2)ccc2cccnc12 (stereo not drawn)
-6	.	Cn1nc(C(=O)NC2CCCCCC2)ccc1=O
11	.	Cc1ccc2cc(CNCC(C)O)c(=O)[nH]c2c1C (stereo not drawn)
.	-2.5	CC(C)n1c(C(F)(F)F)nc2cc(C(=O)O)ccc21
5	1.6	O=C(CC(C(=O)O)C1CCCO1)Nc1ccc(F)cc1 (stereo not drawn)
7	.	Cn1nc(C(N)=O)c2ccccc2c1=O
.	2.1	O=C(Nc1nc(-c2ccccc2)cs1)C12CC3CC(CC(C3)C1)C2
-9	1.3	Cc1ccccc1/C=N/N1C(=O)c2ccc3c4c(ccc(c24)C1=O)CC3
-4	4.5	O=C(/C=C/c1ccco1)N1CCN(C(c2ccccc2)c2ccccc2)CC1
4	.	COc1cc(N)c(Cl)cc1C(=O)OCC(=O)Nc1ccc(N2CCOCC2)cc1
-2	.	COc1cc(Cn2cnc3c(cnn3CCO)c2=O)cc(OC)c1
-3	1.5	CCCC(CCC)c1nc2ccncc2[nH]1
-6	1.2	CC(=O)Nc1ccc(S(=O)(=O)NCC2CCC(C(=O)O)CC2)cc1 (stereo not drawn)
-11	.	COc1ccc2oc(=O)c(C(=O)O)cc2c1
5	3.4	CCn1c(=O)c2sccc2n2c(CCCC(=O)NCCc3ccccc3)nnc12
29	.	COc1ccc(C2=C(C)C(N3CCc4ccccc43)=NS2(=O)=O)cc1
.	1.3	CC(C)(C)n1cn[nH]c1=S
15	-5.4	OCCNCC(O)CN1c2ccccc2Sc2ccccc21 (stereo not drawn)
.	-1.2	O=C(c1ccc(F)cc1)C1CC1C(=O)c1ccc(F)cc1 (stereo not drawn)
.	2.3	CC(C)(C)CC(=O)Oc1ccc(-c2n[nH]nc2C#N)cc1
2	0.4	O=C(NN1C(=O)C2C3C=CC(C3)C2C1=O)C1CC=CCC1 (stereo not drawn)
-5	.	CCCN1C(=O)CC(=O)N=C1SCC(=O)c1cc(C)n(-c2ccc(F)cc2)c1C
11	-2.8	O=C(NCc1cccs1)c1cc2sccc2n1Cc1ccccc1
0	.	CC1CCc2cc(F)ccc2N1C(=O)Cn1cc(C#N)c2ccccc21 (stereo not drawn)
1	-5.8	S=C1NC2(CCCC2)N=C1c1ccccc1
13	.	COC(=O)c1ccc(NC(=O)CN(Cc2ccccc2)S(=O)(=O)c2ccc(OC)cc2)cc1
21	.	CCOC(=O)c1sc(N=NC2=C(O)CCCC2=O)c(C(=O)OCC)c1C
.	-2.2	CCCC(=O)NC1=C(C#N)C2(CCCC2)Cc2ccccc21
5	.	COC(=O)N/N=C1/C(=O)c2cccc3cccc1c23
17	7.0	CC(=O)Oc1ccccc1C(=O)N(C(C)C)C(C)C
-6	.	O=C(O)/C=C/c1ccc(OC(F)(F)C(F)C(F)(F)F)cc1 (stereo not drawn)
3	1.2	COc1ccc(-c2cc(C(=O)OCC(=O)c3ccccc3)c3cccc(Cl)c3n2)cc1
-14	.	Cc1onc(-c2c(Cl)cccc2Cl)c1NC(=O)O/N=C/c1ccccc1
-6	.	COc1cccc(N(C)C(=O)c2nn(Cc3ccccc3)c(=O)c3ccccc23)n1
-25	.	CCN(CC)C(C(=O)Nc1ccc2c(c1)OCO2)c1ccccc1 (stereo not drawn)
0	.	COc1cc(/C=C2\SC(=O)NC2=S)ccc1O
13	.	O=C(NC1CCCCCC1)C1CCCN(C(=O)N2CCOc3ccccc32)C1 (stereo not drawn)
.	-0.2	O=C(c1ccccn1)c1ccc2ccccc2n1
12	0.4	CC(C)(C)c1ccc(OCc2nnc(SCC(N)=O)n2-c2ccccc2)cc1
25	0.5	CCN1CCN(C(=O)C23CC4CC(C)(CC(C)(C4)C2)C3)CC1
4	1.4	CCN1C(=O)c2ccccc2S(=O)(=O)c2ccc(C(=O)N3CCc4ccccc43)cc21
.	-0.6	COC(=O)c1cc(C#N)c(SCc2ccc(Cl)cc2)nc1C(OC)OC
3	-1.8	O=C(COc1ccccc1C(=O)O)NCCc1ccccc1
23	.	COc1ccc(C(=O)c2nccc3ccccc23)cc1
-8	.	COc1ccc(C2CCCCCN2C(=O)CCN2C(=O)COc3ccccc32)cc1 (stereo not drawn)
.	2.5	CC(=O)Nc1ccc(OCc2ccc3ccccc3n2)cc1
6	.	Cc1ccc2oc(=O)cc(CN3CC(C)OC(C)C3)c2c1 (stereo not drawn)
-10	19	O=C(C1=C(O)C(=O)N(CCN2CCOCC2)C1c1ccccc1)c1ccco1 (stereo not drawn)
16	.	COc1ccc2ccccc2c1/C=N/NC(=O)C1CC1

# Other entries:
Sa helicase inh	MgrA-DNA mod	Structure
5	.	CCSc1nnc(-c2cccc(S(=O)(=O)N(CC)CC)c2)o1
1	-2.3	CC(C)OC(=O)C(C)N=Cc1ccccc1 (stereo not drawn)
.	-6.8	CC(=O)N/C(=C\c1ccccc1Br)C(=O)O
.	-0.9	CCOC(=O)N1CCC(NS(=O)(=O)c2ccc(C)c(Cl)c2)CC1
.	-0.3	CS(=N)(=O)c1ccc(Oc2cccc(F)c2C#N)cc1 (stereo not drawn)
8	.	O=C(O)CCSc1cc(-c2ccccc2)nc(SCCC(=O)O)n1
-13	.	O=C(NC1CC1)c1cc(-c2ccccc2)nn1-c1ccccc1
1	.	Cc1nn(-c2ccccc2)c(C)c1CN(C)Cn1c(=O)oc2ccccc21
14	.	Cc1nnc(NC(=O)CC23CC4CC(CC(C4)C2)C3)s1
.	14	CC(C)(C)c1ccc(OCCOc2ccc(C=C3C(=O)NC(=O)NC3=O)cc2)cc1
-6	.	CC(=O)N1c2ccc(S(=O)(=O)N3CCCC(C(=O)NC4CCCC4)C3)cc2CC1C (stereo not drawn)
8	.	Oc1ccccc1-c1nnc(-c2ccccc2)o1
5	.	NS(=O)(=O)c1ccc(CCNC(=O)c2csc3c2CCCC3)cc1
-19	.	COc1ccc(-c2nc(-c3ccc(C(F)(F)F)cc3)no2)cc1OC
1	3.3	COc1ccc(N2CC(C(=O)Nc3nc4ccc(S(C)(=O)=O)cc4s3)CC2=O)cc1 (stereo not drawn)
-3	.	CCCc1cc(C(=O)N/N=C/c2cnn(C)c2)sc1C
3	-1.4	CCCc1cc2c(=O)c(-c3ccc4c(c3)OCCO4)c(C(F)(F)F)oc2c(C=[N+](C)C)c1O
-20	0.6	COC(=O)C1=C(N)C(C(=O)OC)=c2s/c(=C/c3ccccc3)c(=O)n2C1c1ccccc1 (stereo not drawn)
.	0.2	CC(C)(C)c1csc(-c2ccc3nonc3c2)n1
11	0.6	CCc1ccccc1N(CC)C(=O)c1cc2c(s1)-c1c(C)cccc1OC2
-10	0.9	O=c1[nH]nc(SCc2ccc(Cl)cc2Cl)c(=O)[nH]1
.	2.3	Cc1ccc(SC(=O)c2sc(-c3ccccc3)nc2C)cc1
-7	.	Cc1cc(SCC(=O)N2CCN(C)CC2)nc(SCC(=O)N2CCN(C)CC2)n1
6	-0.4	CCS(=O)(=O)N(C)c1ccc(C(=O)Nc2cc(C)ccc2C)cc1
7	-4.7	CC1(C)C=C(c2ccc(C(=O)O)s2)CC(C)(C)N1
-33	.	CSc1nc(NC(=O)NS(=O)(=O)c2ccccc2Cl)nc(C2CC2)n1
1	0.5	CCOC(=O)C1=C(C)Nc2ncnn2C1c1cccnc1 (stereo not drawn)
27	.	C/C(=N\NC(N)=O)c1cccc(Cl)c1
7	-1.8	CCCNC(=O)C1CC(=O)N(c2ccc(C)c(Cl)c2)C1 (stereo not drawn)
3	.	CCN1C(=O)c2cccc3c(NC(=O)c4ccncc4)ccc1c23
10	2.1	COc1cccc(C2(O)CCN(CC(=O)N3CCCC3)CC2)c1
-14	.	O=C(OCCN1CCCC1=O)c1ccc(F)cc1F
4	1.1	O=C(NCCc1cnc[nH]1)NC12CC3CC(CC(C3)C1)C2
.	-0.1	O=C(Nc1ccc(Cl)cc1)c1nn2c(c1Br)NC(c1cccs1)CC2C(F)(F)F (stereo not drawn)
.	-2.5	COc1ccc(-c2cc(C(F)(F)F)nc(N)n2)cc1
4	2.4	Oc1ccc(C=NCC2OCCc3ccccc32)cc1 (stereo not drawn)
-9	.	O=C(OCCOc1ccc(Br)cc1)c1cccs1
-3	0.0	COC(=O)C[n+]1ccc(C)cc1
17	-1.7	O=C(c1ccccc1)N1CCCn2c1nc1ccccc12
-8	.	CC1=C(C(=O)Nc2ccccc2)C(c2ccc(C(C)C)cc2)n2ncnc2N1 (stereo not drawn)
15	.	CSc1nnc(C)c(=O)n1COC(=O)/C=C/c1ccc2c(c1)OCO2
15	-2.4	CSc1ccc(CNc2ccccn2)cc1
-11	.	N#CC(C#N)=CNc1ccccn1
-5	.	CCn1c(N)c(C(=O)COC(=O)c2c(C)nn(Cc3ccccc3)c2Cl)c(=O)[nH]c1=O
14	-0.5	CC(Nc1cc(C)ccn1)=C(C#N)C#N
-6	.	Cc1ccc(CS(=O)(=O)Cc2ccc(C(=O)NC3CC3)o2)cc1
-3	.	CC(C)(C)c1cc(NC(=O)CSc2ccc(S(=O)(=O)N3CCCC3)cn2)on1
1	0.0	CNC(=S)N1CCN(c2nc3ccccc3s2)CC1
.	-1.5	O=C1CCC(=O)N1CNc1ccc(Cl)cc1
.	-3.0	CCC1NC(C(=O)O)CS1 (stereo not drawn)
7	0.9	O=C1/C(=C/c2ccccc2O)N=C2CCCCCN12
-8	.	COc1nc(NC(=O)c2ccc(F)cc2)nc(OC)c1-c1ccccc1
0	-0.2	C=CCOc1nc(NCC)nc(N(C)C)n1
.	0.8	O=C(NC1CCN(C(=O)c2ccco2)CC1)c1ccccc1
12	-7.0	CCOC(=O)C1=C(C)NC2(O)CC1C1COC2O1 (stereo not drawn)
-19	.	CN(CCC#N)C(=S)Nc1ccc(S(=O)(=O)N2CCOCC2)cc1
4	15	O=C1c2ccccc2-c2n[nH]c(=S)nc21
-17	.	CCN(CC)CCCN1C(=O)CSC1c1ccc2c(c1)OCO2 (stereo not drawn)
3	.	CCNc1nc(NN)nc(NCC)n1
1	-1.4	CN(C(=S)SCC1=CCS(=O)(=O)C1)C1CCS(=O)(=O)C1 (stereo not drawn)

# Remaining list, next part:
Sa helicase inh	MgrA-DNA mod	Structure
-21	0.9	Cc1ccc(C)c(NC(=O)C(Sc2cccc[n+]2[O-])c2ccccc2)c1 (stereo not drawn)
18	-0.9	CCOC(=O)C1CCCN(CC(=O)Nc2nccs2)C1 (stereo not drawn)
-7	.	COc1ccccc1NS(=O)(=O)c1ccc2oc(SC)nc2c1
5	-3.4	CCc1cc(-c2n[nH]c(CCC(=O)O)c2-c2nc3ccccc3n2C)c(O)cc1O
5	-4.2	Cc1ccc(NC(=O)C/C(N)=N/O)cc1C
.	-0.1	COc1ccc([N+](=O)[O-])cc1-c1ccc(/C=c2/sc3nc4cc(C)c(C)cc4n3c2=O)o1
17	4.7	Cc1oc2c(c1C(N)=O)CCCC2
1	1.4	CC1=C(c2ccc(C)cc2)[N+](=O)C(C)(C)N1[O-]

# No new results follow: an excerpt of the list.
Sa helicase inh	MgrA-DNA mod	Structure
-5	.	CCn1c(N)c(C(=O)COC(=O)c2c(C)nn(Cc3ccccc3)c2Cl)c(=O)[nH]c1=O
14	-0.5	CC(Nc1cc(C)ccn1)=C(C#N)C#N
-6	.	Cc1ccc(CS(=O)(=O)Cc2ccc(C(=O)NC3CC3)o2)cc1
-3	.	CC(C)(C)c1cc(NC(=O)CSc2ccc(S(=O)(=O)N3CCCC3)cn2)on1
1	0.0	CNC(=S)N1CCN(c2nc3ccccc3s2)CC1
.	-1.5	O=C1CCC(=O)N1CNc1ccc(Cl)cc1
.	-3.0	CCC1NC(C(=O)O)CS1 (stereo not drawn)
7	0.9	O=C1/C(=C/c2ccccc2O)N=C2CCCCCN12
-8	.	COc1nc(NC(=O)c2ccc(F)cc2)nc(OC)c1-c1ccccc1
0	-0.2	C=CCOc1nc(NCC)nc(N(C)C)n1
.	0.8	O=C(NC1CCN(C(=O)c2ccco2)CC1)c1ccccc1
12	-7.0	CCOC(=O)C1=C(C)NC2(O)CC1C1COC2O1 (stereo not drawn)
-19	.	CN(CCC#N)C(=S)Nc1ccc(S(=O)(=O)N2CCOCC2)cc1
4	15	O=C1c2ccccc2-c2n[nH]c(=S)nc21
-17	.	CCN(CC)CCCN1C(=O)CSC1c1ccc2c(c1)OCO2 (stereo not drawn)
3	.	CCNc1nc(NN)nc(NCC)n1
1	-1.4	CN(C(=S)SCC1=CCS(=O)(=O)C1)C1CCS(=O)(=O)C1 (stereo not drawn)
-21	0.9	Cc1ccc(C)c(NC(=O)C(Sc2cccc[n+]2[O-])c2ccccc2)c1 (stereo not drawn)
18	-0.9	CCOC(=O)C1CCCN(CC(=O)Nc2nccs2)C1 (stereo not drawn)
-7	.	COc1ccccc1NS(=O)(=O)c1ccc2oc(SC)nc2c1
5	-3.4	CCc1cc(-c2n[nH]c(CCC(=O)O)c2-c2nc3ccccc3n2C)c(O)cc1O
5	-4.2	Cc1ccc(NC(=O)C/C(N)=N/O)cc1C
.	-0.1	COc1ccc([N+](=O)[O-])cc1-c1ccc(/C=c2/sc3nc4cc(C)c(C)cc4n3c2=O)o1
17	4.7	Cc1oc2c(c1C(N)=O)CCCC2
